PrP 5UTR inh = inhibition of PrP 5' UTR reporter expression. cell-based PrP 5' UTR mRNA reporter, plate reader. inhibition, % (test concentration not listed). actives 0.35% (n = 340,000). AID 488862;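 active means every replicate at 50% or more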;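 further: 0 = median of the neutral control wells; tested in H4 reporter cells; numbers are from one replicate; inactives centre near -14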
Mtb hypoxia inh = Mtb hypoxia fluorescent reporter inhibition; M. tuberculosis hypoxia-regulated fluorescent reporter, fluorescence; fluorescence inhibition, % (concentration not given with the values); actives 0.1% (n = 300,000); AID 1159583;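 active means 35 to 45% if threefold the growth effect, above 45% if 1.5-fold the growth effect; inactive means the rest, general growth blockers included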;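 further: wells of about 50 µL received 100 nL stock; 0% = vehicle wells and 100% = reference inhibitor wells; whole bacteria with a GFP reporter of the hypoxia response; strong numbers were not always called active; many hits fall short of the cut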
Bead autofluor = compound fluorescence in toxin protease inhibitor counterscreen; AID 624483; actives 3.1% (n = 360,000); compound autofluorescence counterscreen, microsphere flow cytometry; active compounds read high; fluorescence intensity (test concentration not listed);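 active means at least 3 SD above the mean of all compounds, about 16000 in these data; inconclusive means too few beads counted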;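 further: 100 nL of 1 mM stock went into each well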
BJeLR lethal = kills HRASV12-expressing BJeLR cells | BJeLR (HRASV12) viability, CellTiter-Glo ATP luminescence, 48 h; reference of the scale not given here | inhibition, % (test concentration not listed) | actives 0.17% (n = 300,000) | AID 1554;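 active means replicate mean above 50%; inconclusive means above 50% but judged a plate artefact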;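 further: 50 nL library stock added to about 25 µL; numbers are from one replicate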
Sa ugtP lethal = growth inhibition of S. aureus ugtP deletion strain | actives 0.54% (n = 330,000) | growth inhibition, % (no concentration beside the values) | S. aureus RN4220 ugtP deletion, OD600 growth, 16 h; some inactives read as strong as hits;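 active means z-score under -3 and OD600 up to 0.15 on both plates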;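 further: plate controls were untreated wells for no effect and antibiotic for full effect; wells of about 80 µL received 100 nL stock; the first replicate is given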
RN4220 kill = S. aureus RN4220 growth inhibition. OD600, 16 h. inhibition, % (concentration not given with the values). actives 0.33% (n = 330,000);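 active means z-score of -3 or lower and OD600 up to 0.18 on both plates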;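 further: plate controls were untreated cells for no effect and reference antibiotic for full effect; stock transfer was 100 nL into about 80 µL; one replicate is shown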
Mtb hypoxia inh growth = recorded beside Mtb hypoxia inh, whose call it bears; growth inhibition, %; measured here: M. tuberculosis growth (absorbance);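 0% = vehicle and 100% = reference antibiotic; read after six days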
* hit, by the source's call; ? = inconclusive; / = not tested or not shown.

SMILES | PrP 5UTR inh | Mtb hypoxia inh | Mtb hypoxia inh growth | Bead autofluor | BJeLR lethal | Sa ugtP lethal | RN4220 kill
Cc1cc2c(NC(=O)Nc3ccc(F)cc3)cccc2nn1 | -31 | 7 | 10 | 3819 | 3 | 1 | 2.4
CN(C)C(=O)c1sccc1Oc1ccc(F)cc1[N+](=O)[O-] | -42 | 9 | -6 | 4041 | 5 | 4 | 3.5
COCCN=c1scc(-c2ccccc2)n1N=Cc1c[nH]c2ccccc12 | / | -1 | 9 | / | / | 17 | -15
O=c1c2ccccc2cnn1-c1ccc(Cl)cc1 | -51 | / | / | 2288 | -1 | -6 | 1.7
COc1ccccc1CNC(=O)CCCC(=O)n1ncc2cc(C)ccc21 | -7 | 3 | 4 | 5680 | -4 | -1 | -2.5
Cc1cccc(C(=O)/C=C2/c3ccccc3CC(C)(C)N2C)c1 | -21 | 7 | 12 | 10394 | -1 | 2 | 3.2
Cc1ccc(C=NNC(=O)c2ccc(-n3cnnn3)cc2)cc1 | / | 5 | -4 | / | / | 3 | 1.9
CC(=NCCC1=CCCCC1)c1c(O)n(C)c(=O)n(C)c1=O | -5 | 6 | 7 | 23048* | 7 | 5 | 1.4
CN(C(=O)c1ccccc1C(=O)OCC(=O)c1ccc(Br)cc1)c1ccccc1 | -19 | 2 | -2 | ? | 17 | 7 | 7.7
COc1ccccc1CNc1nc(-c2cc(C)n(C)c2C)cs1 | -31 | -9 | 2 | 3718 | / | 0 | 1.3
CCCCNC(=NCc1cccc(C(F)(F)F)c1)Nc1ccccc1 | -3 | 0 | 4 | 4283 | -4 | -11 | -1.1
CCN(CCn1cccn1)C(=O)C1CCC(=O)N(CCc2cccc(F)c2)C1 (stereo unspecified) | -13 | 1 | 4 | 6261 | -7 | 1 | 0.3

A different layout for part of the listing above.
COCCN=c1scc(-c2ccccc2)n1N=Cc1c[nH]c2ccccc12
  PrP 5UTR inh = /
  Mtb hypoxia inh = -1
  Mtb hypoxia inh growth = 9
  Bead autofluor = /
  BJeLR lethal = /
  Sa ugtP lethal = 17
  RN4220 kill = -15
O=c1c2ccccc2cnn1-c1ccc(Cl)cc1
  PrP 5UTR inh = -51
  Mtb hypoxia inh = /
  Mtb hypoxia inh growth = /
  Bead autofluor = 2288
  BJeLR lethal = -1
  Sa ugtP lethal = -6
  RN4220 kill = 1.7
COc1ccccc1CNC(=O)CCCC(=O)n1ncc2cc(C)ccc21
  PrP 5UTR inh = -7
  Mtb hypoxia inh = 3
  Mtb hypoxia inh growth = 4
  Bead autofluor = 5680
  BJeLR lethal = -4
  Sa ugtP lethal = -1
  RN4220 kill = -2.5

Next compounds
SMILES | PrP 5UTR inh | Mtb hypoxia inh | Mtb hypoxia inh growth | Bead autofluor | BJeLR lethal | Sa ugtP lethal | RN4220 kill
COc1ccccc1OCC(=O)NCC(c1cccs1)N1CCOCC1 (stereo unspecified) | -21 | 7 | 1 | 6003 | -12 | 3 | 0.4
CCn1ncc(Cl)c1C(=O)Nc1ccc2c(c1)CCC2 | -5 | / | / | 5959 | 2 | / | /
Cc1ccc(S(=O)(=O)/N=C(/Sc2ccccc2C(=O)O)c2ccccc2)cc1 | -14 | / | / | 6063 | -9 | / | /
CC(C)Cn1c(-c2cccc(S(=O)(=O)N3CCOCC3)c2)n[nH]c1=S | 77* | -11 | -3 | ? | / | 3 | 3.0
Cc1cc2nc(-c3ccccc3O)[nH]c2cc1C | -120 | 15 | 6 | 4175 | / | -4 | -1.9
CCOC(=O)c1sc(CS(=O)(=O)c2ccc(Cl)cc2)nc1C | -8 | 6 | -18 | 5113 | 6 | 13 | 3.3
CCOC(=O)c1nnn(CC(=O)N2N=C(c3cccc4ccccc34)CC2c2ccccc2)c1C(=O)OCC (stereo unspecified) | -6 | -1 | 7 | 4434 | 3 | -20 | -2.3
CSc1nc2cc3c(cc2n1C(=O)c1ccc(C)cc1)OCCO3 | / | 7 | 0 | 10515 | 4 | -2 | 0.5
COc1ccc(C(=O)NCC(=O)NCC(=O)OCC(=O)C(C)(C)C)cc1 | -84 | -1 | 10 | 2589 | -4 | 5 | 5.5
C[C@H]1CN([C@@H](C)CO)C(=O)c2cc(NC(=O)Cc3ccccc3)ccc2O[C@H]1CN(C)Cc1ccccc1 | -23 | 2 | 6 | 4375 | / | -7 | -12
CC(=O)OCc1cc(-c2nc3ccccc3[nH]c2=O)nn1-c1ccc(Cl)cc1 | -4 | 4 | -14 | 2639 | -2 | 9 | 1.4
CC(C)CC1COC(=O)N1 (stereo unspecified) | -21 | -4 | 9 | 3773 | 4 | 3 | 1.5

As entered above:
C[C@H]1CN([C@@H](C)CO)C(=O)c2cc(NC(=O)Cc3ccccc3)ccc2O[C@H]1CN(C)Cc1ccccc1 in Bead autofluor is entered as 4375
CC(=O)OCc1cc(-c2nc3ccccc3[nH]c2=O)nn1-c1ccc(Cl)cc1 in PrP 5UTR inh is entered as -4
Cc1ccc(S(=O)(=O)/N=C(/Sc2ccccc2C(=O)O)c2ccccc2)cc1 in BJeLR lethal is entered as -9

(continued)
SMILES | PrP 5UTR inh | Mtb hypoxia inh | Mtb hypoxia inh growth | Bead autofluor | BJeLR lethal | Sa ugtP lethal | RN4220 kill
CC(C)(C)c1nn2cnnc2n(N=Cc2ccccc2)c1=O | / | 2 | 7 | / | / | 9 | 3.1
CCCS(=O)(=O)N1CCC(C(=O)NCCCN2CCCC2=O)CC1 | -26 | 10 | 14 | 2927 | / | -3 | -10
CCOc1ccc(NC(=O)CS(=O)CC(=O)Nc2cccnc2)cc1 (stereo unspecified) | -13 | 0 | -2 | 3493 | -7 | -1 | 3.9
Cc1nc(-c2nc(C(=O)NNS(C)(=O)=O)cs2)cs1 | -10 | -6 | 1 | 3877 | 8 | 2 | 4.6
CCOC(=O)c1c(C)n(C)c2cc(-c3ccc(C)cc3)c(O)cc12 | -26 | 3 | 10 | 2705 | 9 | -2 | 2.2
C=CCNC(=S)NCC=C | -15 | / | / | 4214 | 1 | -11 | 3.1
CC(C)=CC1C(C(=O)NCCc2ccccc2)C1(C)C (stereo unspecified) | -20 | -2 | 8 | 3650 | 2 | 3 | 4.4
COc1ccccc1CNC(=O)C(NS(=O)(=O)c1ccc2c(c1)oc(=O)n2C)C(C)C (stereo unspecified) | -1 | / | / | 4213 | -4 | -3 | 7.7
Cc1ccnc(NS(=O)(=O)c2cnc(Cl)c(Br)c2)c1 | -3 | / | / | 2010 | -23 | / | /
COc1cc(S(=O)(=O)N2CCN(C)CC2)c(OC)cc1Cl | 17 | -2 | 0 | ? | -8 | 11 | 3.0
Cc1ccc(OCC(=O)NC2CCCC(C)C2C)c([N+](=O)[O-])n1 (stereo unspecified) | -9 | 10 | -7 | 4069 | / | -1 | 6.2
CC(Oc1ccc(Cl)cc1Cl)C(=O)NCc1ccncc1 (stereo unspecified) | -20 | 6 | 1 | 15682 | 2 | 6 | 4.3
Cc1ccc(-c2nnnn2-c2ccccc2C(=O)O)cc1 | -22 | 20 | 19 | 3738 | 1 | 0 | 0.9
C(#Cc1ccccc1)CN1CCCCC1 | -19 | 11 | 5 | 4474 | 5 | 3 | 6.4
O=C(COC(=O)c1ccc(Cl)nc1)Nc1ccc2c(c1)OCCO2 | -13 | -5 | 4 | 3927 | / | 5 | 6.3
O=C(O)CC/C(=N/NC(=O)c1ccc(-c2ccccc2)cc1)c1ccccc1 | -31 | / | / | 6036 | -5 | / | /
Cc1cc(=O)[nH]c2nnc(-c3ccc(Br)cc3)n12 | -29 | 3 | 0 | 3442 | -1 | 4 | 5.4
O=C(c1ccc(F)cc1)N1CCN(C(=O)c2cccnc2)CC1 | -10 | 12 | 9 | 3180 | -5 | -2 | 7.2
COc1ccc(C(=O)C(C)OC(=O)c2nc3nccc(C)n3n2)cc1 (stereo unspecified) | -28 | 6 | -13 | 9078 | / | 3 | 2.7
Cn1nc(-c2ccc3c(c2)OCCO3)c2ccccc2c1=O | -14 | 1 | -5 | 2079 | 5 | 4 | 4.0
CCOC(=O)C(=CNNc1c(C)csc1C(=O)OC)C(=O)OCC | -15 | 0 | 3 | 5830 | -4 | 6 | 4.1
O=C1CCc2cc(S(=O)(=O)NC(Cc3ccccc3)C(=O)NC3CCCCC3)ccc2N1 (stereo unspecified) | -2 | / | / | 5235 | 2 | -8 | -3.9
COc1ccc(NC(=O)Nc2ccc(O)c3ccccc23)cc1 | / | 6 | -5 | / | 0 | 8 | 20
Cc1[nH]nc2c1C(c1ccccc1)C1=C(CC(C)(C)CC1=O)N2 (stereo unspecified) | -5 | 10 | 14 | 3673 | 0 | -4 | 5.9
CCC(=O)N=c1sc2cc(F)cc(F)c2n1C | -10 | 1 | 3 | 5415 | 1 | 3 | -10
O=S(=O)(NCc1ccco1)c1ccc2c(c1)Cc1ccccc1-2 | -13 | 3 | -1 | 11281 | -10 | -2 | 4.1
CC(NCC(O)COc1ccc(S(=O)(=O)N2CCOCC2)cc1)c1ccccc1 (stereo unspecified) | -38 | 22 | -6 | 4520 | 3 | 8 | -0.3
Cc1ccnc(NC(=O)c2cccc(S(=O)(=O)Nc3ccc(C)cc3C)c2)c1 | -15 | 8 | 7 | 2876 | / | 17 | 6.1
CCOC(=O)c1cc(-c2ccccc2)sc1NC(=O)CCN1C(=O)c2ccccc2C1=O | -19 | 6 | 1 | 1963 | 2 | 14 | 4.7
CCc1ccc(OCC(=O)O/N=C(\N)c2ccccn2)cc1 | / | 2 | 0 | 3512 | -5 | -1 | 4.9
CC(=O)c1cccc(NC(=O)NCc2ccc3c(c2)OCO3)c1 | -6 | 7 | 9 | ? | 2 | -2 | 0.3
CC(C)c1csc(CN2CCN(CCc3ccccc3)C(CCO)C2)n1 (stereo unspecified) | -39 | 4 | 1 | 2243 | -10 | -3 | -6.8
CCN(CC)CCN(Cc1cc2ccc(C)cc2[nH]c1=O)C(=O)NC1CCCCC1 | -12 | 4 | 7 | 5575 | 1 | 7 | -1.3
Cn1ncc([N+](=O)[O-])c1C(=O)Nc1cccc2ccccc12 | -4 | -3 | -5 | 3059 | -3 | 2 | 9.3
Cc1cccc(NC(=O)Cn2c(=O)n3nc(CCn4nc(C)cc4C)nc3c3ccccc32)c1 | -6 | 1 | 6 | 21276* | -1 | -2 | 9.9
CCc1cc(C=C(Cl)Cl)oc(=O)c1C | -24 | 5 | 16 | 12772 | -8 | -5 | 8.3

In the list so far, 2 contain a tert-butyl group.
SMILES | PrP 5UTR inh | Mtb hypoxia inh | Mtb hypoxia inh growth | Bead autofluor | BJeLR lethal | Sa ugtP lethal | RN4220 kill
COc1ccc(C(=O)NCC(=O)NCC(=O)OCC(=O)C(C)(C)C)cc1 | -84 | -1 | 10 | 2589 | -4 | 5 | 5.5
CC(C)(C)c1nn2cnnc2n(N=Cc2ccccc2)c1=O | / | 2 | 7 | / | / | 9 | 3.1

(cont.)
SMILES | PrP 5UTR inh | Mtb hypoxia inh | Mtb hypoxia inh growth | Bead autofluor | BJeLR lethal | Sa ugtP lethal | RN4220 kill
Cc1ccc(N)c(C(=O)c2ccc(Br)cc2)c1 | -12 | 12 | 3 | 2486 | -1 | 7 | 4.1
COc1cccc(C(=O)C(C#N)=C(SC)SC)c1 | -2 | 4 | 4 | 3516 | 1 | 1 | 5.3
CC(C)OC(=O)C1C2C=CC3(CN(Cc4cccs4)C(=O)C13)O2 (stereo unspecified) | -24 | 7 | 8 | 4169 | 2 | 7 | 4.9
COc1cc(OC)c(OC)cc1CN1CCC(O)CC1 | -9 | 0 | 13 | 6089 | 1 | 4 | 4.0
CC(=O)c1sc(NC(=O)CS(=O)(=O)c2ccc(F)cc2)nc1C | -5 | 10 | 3 | 5584 | -12 | 0 | 2.0
C#CCOC(=O)c1ccccc1C(=O)O | -6 | / | / | 4688 | 0 | -1 | 1.8
O=C(Nc1ccccn1)c1ccc(Cl)c(S(=O)(=O)N2CCCCCC2)c1 | -28 | 11 | 3 | / | -3 | 5 | 5.2
COc1ccc(-n2nc(C(=O)NCC(=O)NC(C)C)c3ccccc3c2=O)cc1OC | -14 | 18 | -4 | 3257 | -4 | 8 | 3.8
COc1ccc(S(=O)(=O)N2CCCOC2CNC(=O)C(=O)NCc2ccco2)cc1 (stereo unspecified) | 3 | 6 | -1 | 2310 | 11 | 1 | 3.8
Cc1ccc2cc(CCNC(=O)c3cccc([N+](=O)[O-])c3)c(=O)[nH]c2c1C | -43 | -6 | 2 | 8278 | 21 | -6 | -7.8
COc1ccc(NC(=O)CC(C)C)c([N+](=O)[O-])c1 | -2 | 9 | 8 | 8720 | -2 | 10 | 4.0
Cc1ccc(C=NNC(=O)CSc2nc3nc(C)cc(C)n3n2)cc1 | / | 5 | 9 | / | / | 9 | 4.5
